# Assay outcomes (PubChem BioAssay)
# BJeLR lethal: BJeLR cell viability loss; inhibition, % (concentration not given with the values); AID 1554; BJeLR (HRASV12) viability, CellTiter-Glo ATP luminescence, 48 h; reference of the scale not given here; actives 0.17% (n = 300,000);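 active = replicate mean above 50%; inconclusive = above 50% but judged a plate artefact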;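 note: 50 nL library stock added to about 25 µL; numbers are from one replicate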
# Autofluor counter: counter-screen for toxin protease inhibitors: compound fluorescence | fluorescence intensity (test concentration not listed) | actives 3.1% (n = 360,000) | AID 624483 | compound autofluorescence counterscreen, microsphere flow cytometry; hits give high values;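 active = at least 3 SD above the mean of all compounds, about 16000 in these data; inconclusive = too few beads counted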;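 note: 100 nL of 1 mM stock went into each well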
# Mtb hypoxia rep: inhibitors of hypoxia-regulated fluorescent reporter in Mycobacterium tuberculosis; M. tuberculosis hypoxia-regulated fluorescent reporter, fluorescence; fluorescence inhibition, % (concentration not given with the values); actives 0.1% (n = 300,000); AID 1159583;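 active = 35 to 45% if threefold the growth effect, above 45% if 1.5-fold the growth effect; inactive = the rest, general growth blockers included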;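 note: wells of about 50 µL received 100 nL stock; 0% = vehicle wells and 100% = reference inhibitor wells; whole bacteria with a GFP reporter of the hypoxia response; strong numbers were not always called active; many hits fall short of the cut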
# ugtP null kill: kills S. aureus RN4220 lacking UgtP; actives 0.54% (n = 330,000); AID 1259309; S. aureus RN4220 ugtP deletion, OD600 growth, 16 h; some inactives read as strong as hits; growth inhibition, % (concentration not given with the values);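 active = z-score under -3 and OD600 up to 0.15 on both plates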;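 note: plate controls were untreated wells for no effect and antibiotic for full effect; wells of about 80 µL received 100 nL stock; the first replicate is given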
# Sa RN4220 lethal: S. aureus RN4220 growth inhibition | inhibition, % (concentration not given with the values) | OD600, 16 h | AID 1259311 | actives 0.33% (n = 330,000);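 active = z-score of -3 or lower and OD600 up to 0.18 on both plates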;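 note: plate controls were untreated cells for no effect and reference antibiotic for full effect; stock transfer was 100 nL into about 80 µL; one replicate is shown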
# PrP UTR inh: inhibition of PrP 5' UTR reporter expression; cell-based PrP 5' UTR mRNA reporter, plate reader; actives 0.35% (n = 340,000); inhibition, % (no concentration beside the values);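 active = every replicate at 50% or more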;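 note: 0 = median of the neutral control wells; tested in H4 reporter cells; numbers are from one replicate; inactives centre near -14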
# Mtb hypoxia rep growth: recorded beside Mtb hypoxia rep, whose call it bears; growth inhibition, %; measured here: M. tuberculosis growth (absorbance);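 0% = vehicle and 100% = reference antibiotic; read after six days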
# * hit, by the source's call; ? = inconclusive; . = no result given; & = joins results of further samples.
# Fields: BJeLR lethal	Autofluor counter	Mtb hypoxia rep	Mtb hypoxia rep growth	ugtP null kill	Sa RN4220 lethal	PrP UTR inh
- [O-][n+]1onc2c1CCC1N(O)CCC21O (stereo not given)
    4	10934	2	-2	17	6.1	-14
- COc1ccc(C(C#N)Nc2ccccc2OC)cc1 (stereo not given)
    -8	5871	-8	7	-7	-2.8	-16
- Cc1cc(SCC(=O)NN)c2cc(Br)ccc2n1
    -5	4049	15	11	-1	8.0	-9
- COc1ccc(-c2csc3nc[nH]c(=O)c23)cc1
    -7	3568	-8	5	2	4.3	-6
- COc1ccc(C(Nc2ccccn2)c2c(NC(=O)c3ccco3)sc(C)c2C)cc1 (stereo not given)
    -2	2081	5	2	-1	0.2	-9
- CCOc1cc(C=NNC(=O)c2cc(C3CC3)[nH]n2)ccc1O
    .	.	1	10	0	3.4	.
- O=c1[nH]c(Cl)ccc1CN1CCOCC1
    0	3955	2	7	0	2.0	-7
- CC(C)CCNC(=O)CCn1c(=S)oc2ccccc21
    -7	2528	16	10	1	3.1	-9
- CC(C)OC(=O)C1C(=O)CC(C)(O)C(C(=O)OC(C)C)C1c1cccc(O)c1 (stereo not given)
    -11	6124	9	8	8	0.8	-20&-13
- CCCCCn1c(=O)c2ccccc2n2c(CCl)nnc12
    -6	5361	23	21	-2	0.6	-7
- NC(=O)c1cc2cc(Cl)ccc2o/c1=N/NC(=O)c1cccs1
    2	4422	.	.	.	.	-12
- CN(C)S(=O)(=O)c1ccc(NC(=O)CSc2ncnc3ccccc23)cc1
    2	1999	-1	7	-4	7.9	-9
- CCn1c(SCC(=O)NN=Cc2ccc(C)o2)nnc1-c1ccc(C)cc1
    .	.	-8	0	3	-3.2	.
- C[C@]12C=CC(=O)C=C1CC[C@@H]1C2C(O)C[C@@]2(C)C1CC[C@]2(O)C(=O)COC(=O)CCC(=O)NC(CC(=O)O)C(=O)O (stereo not given in full)
    -15	3345	-1	-7	2	3.0	4
- CCOc1ccc(NC(=O)c2ccc(N3CC4CC(C3)c3cccc(=O)n3C4)c(NC(=O)CCN3CCOCC3)c2)cc1 (stereo not given)
    7	5776	5	2	2	1.8	-13
- O=C(Nc1cccc2ccccc12)C12CC3CC(C1)CC(n1cnc([N+](=O)[O-])n1)(C3)C2
    5	3658	.	.	-1	-0.9	-15
- COc1ccc(CCNC(=S)N2CCN(S(=O)(=O)c3ccc(F)cc3)CC2)cc1
    4	5327	8	1	4	3.8	-35
- CC1=NC(C)(C)CC2CCC(O)C12 (stereo not given)
    .	3552	9	10	2	4.5	-32
- COc1nc(-c2ccc3c(c2)OCO3)n(-c2ccc(NC(=O)CSc3ccccc3)cc2)n1
    3	5050	0	6	8	-6.9	-16
- O=C1Nc2ccccc2C1=Nc1ccc(-c2nnc3n2CCCCC3)cc1
    9	3716&2569	7	7	6	4.8	-22&-12
- Cc1ccc(/C=C/C(=O)OCC(=O)NCc2ccccc2)o1
    .	6338	6	-5	6	4.4	-21
- CCOCCCNC(=O)/C(C#N)=C/c1cc(Br)c(O)c(Br)c1
    13	3258	-10	15	41	45	.
- COc1ccc(O)c(CN2CCCC(N3CCN(c4ccc(F)cc4)CC3)C2)c1 (stereo not given)
    2	4107	-7	2	5	0.6	-11
- Cc1ncoc1C(=O)N1CCc2c([nH]c3ccccc23)C1c1ccccc1F (stereo not given)
    15	4359	7	-17	3	4.6	-20
- Cc1ccc(C(C(=O)NCC2CCCO2)N(C(=O)c2snc(C(N)=O)c2N)c2ccc3c(c2)OCCO3)cc1 (stereo not given)
    -4	5184	-2	14	4	3.0	1
- CC(=O)NCc1ccc(S(=O)(=O)N2CCN(c3ccccn3)CC2)cc1
    -7	3504	-12	5	0	3.2	-5
- COCC(=O)N(Cc1cc2ccc(C)c(C)c2n2nnnc12)C1CCCC1
    3	3315	0	2	-3	-0.4	-17
- Cc1ccc(-c2nnn(CC(=O)N(c3ccc(F)cc3)C(C(=O)NC3CCCC3)c3ccco3)n2)o1 (stereo not given)
    -6	10037	0	-4	-1	1.6	-29
- COCCC(=O)N1CCC(Oc2ccc(C(=O)NCc3ncc(C)[nH]3)cc2)CC1
    -9	4633	11	3	7	1.8	-9
- Cc1ccsc1C(=O)OCC(=O)Nc1cccc(F)c1
    .	8969	4	0	-8	4.7	-14

# Some of the entries above, set out differently:
> CC(C)OC(=O)C1C(=O)CC(C)(O)C(C(=O)OC(C)C)C1c1cccc(O)c1 (stereo not given)
  BJeLR lethal: -11
  Autofluor counter: 6124
  Mtb hypoxia rep: 9
  Mtb hypoxia rep growth: 8
  ugtP null kill: 8
  Sa RN4220 lethal: 0.8
  PrP UTR inh: -20&-13
> CCCCCn1c(=O)c2ccccc2n2c(CCl)nnc12
  BJeLR lethal: -6
  Autofluor counter: 5361
  Mtb hypoxia rep: 23
  Mtb hypoxia rep growth: 21
  ugtP null kill: -2
  Sa RN4220 lethal: 0.6
  PrP UTR inh: -7

# Additional records:
# Fields: BJeLR lethal	Autofluor counter	Mtb hypoxia rep	Mtb hypoxia rep growth	ugtP null kill	Sa RN4220 lethal	PrP UTR inh
- NC(=O)c1ccc(-n2nnnc2SCC(=O)Nc2ccccc2)cc1
    -8	3860	-2	3	4	2.0	-27
- CCOC(=O)c1c(C=O)c2ccccc2n1Cc1ccccc1
    2	3953	1	-4	27	0.0	-9
- CCCCn1c(O)c(/C=C2/C=CC=N2)c(=O)[nH]c1=O
    6	3225	.	.	.	.	-4
- Cc1ccc(NC(=O)CCNS(=O)(=O)c2ccc3[nH]c(=O)oc3c2)cc1N(C)C
    7	5546	9	5	6	2.7	-8
- O=C(CCNS(=O)(=O)c1ccc(Br)cc1)NCCc1ccc(Cl)cc1
    6	5151	5	10	-4	-1.5	-15
- COc1ccc(-c2csc(NC(=O)CCCc3nc4ccccc4c(=O)[nH]3)n2)cc1OC
    4	?	-1	10	10	1.4	-26
- CC(Oc1ccc(Cl)cc1Cl)C(=O)NCCCn1ccnc1 (stereo not given)
    4	4778	11	14	-1	1.6	-12
- CC(OC(=O)c1ccncc1)C(=O)Nc1cccc([N+](=O)[O-])c1 (stereo not given)
    5	4153	13	5	2	3.2	-24
- CSc1ccc(/C=N/n2c(C)nc3ccccc3c2=O)cc1
    17	3873	.	.	.	.	-12
- Cc1nn(Cc2ccc(Cl)cc2Cl)c(C)c1NC(=O)c1sc2ccccc2c1Cl
    -9	4434	15	2	0	12	7

# Next section; it opens with the four that closed the last part.
# Fields: BJeLR lethal	Autofluor counter	Mtb hypoxia rep	Mtb hypoxia rep growth	ugtP null kill	Sa RN4220 lethal	PrP UTR inh
- CC(Oc1ccc(Cl)cc1Cl)C(=O)NCCCn1ccnc1 (stereo not given)
    4	4778	11	14	-1	1.6	-12
- CC(OC(=O)c1ccncc1)C(=O)Nc1cccc([N+](=O)[O-])c1 (stereo not given)
    5	4153	13	5	2	3.2	-24
- CSc1ccc(/C=N/n2c(C)nc3ccccc3c2=O)cc1
    17	3873	.	.	.	.	-12
- Cc1nn(Cc2ccc(Cl)cc2Cl)c(C)c1NC(=O)c1sc2ccccc2c1Cl
    -9	4434	15	2	0	12	7
- CCN(CC)CCn1c(C)nc2ccccc21
    12	4397	-10	4	9	4.5	-21
- Cc1ccc(S(=O)(=O)N2CCCN(C(=O)c3cc4ccccc4[nH]3)CC2)cc1
    -4	5562	8	2	11	8.7	-14
- CCOC(=O)c1c(C)oc2c1c1c(c3ccccc32)OCN(Cc2cccnc2)C1
    .	2627	.	.	-5	2.9	-61
- O=C(N/N=C/c1ccc(Br)o1)c1cc([N+](=O)[O-])cc([N+](=O)[O-])c1
    2	3260	.	.	.	.	6
- O=P(NS(=O)(=O)c1ccc(Cl)cc1)(Oc1ccccc1)Oc1ccccc1
    -8	11234	8	7	4	2.6	-11
- O=C(O)c1ccccc1-c1nc2ccccc2c(=O)n1O
    -2	3602	13	9	-3	4.4	-22
- CCC(CC)C(=O)Nc1cccc(C(=O)Nc2ccc(S(=O)(=O)Nc3ccc(C)cc3)cc2)c1
    -3	22769*	2	3	-12	0.4	-6
- CCCN1Cc2cccc(C(=O)NCc3ccc4c(c3)OCO4)c2C1=O
    0	3889	.	.	8	2.4	-4
- CC(=O)Nc1ccccc1NC(=O)CC(C)(C)C
    -10	3004	-7	-2	-4	-1.4	1
- CCOC(=O)c1ccc(Nc2nnc3nc(C)cc(C)n23)cc1
    -1	2916	6	-1	-4	2.7	-15
- Cc1ccc(C)c(CS(=O)(=O)c2cn(CC(=O)N3CCC(C)CC3)c3ccccc23)c1
    -11	10806	1	0	-10	-5.0	-33
- Cc1cccc(OCC(=O)Nc2ccc(C(=O)Nc3ccccc3C(=O)O)cc2)c1C
    13	4819	20	18	12	14	1
- CC[N+]1(C)CC2CCC(C)(C1)C2(C)C (stereo not given)
    .	4388	-8	7	-14	1.4	-20
- CCCCN1CNC(=S)N(CCc2ccc(OCC)c(OCC)c2)C1
    -6	.	15	0	69	1.3	2
- CCC(C(=O)NCc1ccc(C)cc1)c1ccccc1 (stereo not given)
    -4	4106	9	9	9	2.1	-23
- COCCNC(=O)CN1CCOc2ccccc21
    9	5403	.	.	9	5.4	-13
- COCCN(CCOC)C(=O)CN1C(=O)NC2(CCCc3sccc32)C1=O (stereo not given)
    -2	4020	15	1	16	2.2	-43
- CSc1ccccc1C(=O)C1CCCN(S(=O)(=O)N(C)C)C1 (stereo not given)
    1	3353	-4	0	4	2.1	-14
- CCN(CC)C(=O)c1ccc(NS(=O)(=O)c2ccccc2)cc1
    7	3742	3	2	-1	2.3	-13
- CCCOc1ccc(N2C(=O)CC(SCC(N)C(=O)OCC)C2=O)cc1 (stereo not given)
    -8	3504	17	7	12	4.2	-7
- Cc1nc(NCCO)c(C#N)c2c1COC(C)(C)C2
    -3	3702	.	.	-6	0.1	-5
- COc1ccc(CCC(=O)NNC(=O)c2cc(Cl)ccc2OC)cc1
    4	3714	3	14	4	1.5	-19
- O=C(O)c1ccc(NC(=S)Nc2ccccc2)cc1
    -15	8193	-5	2	0	-0.1	-18
- Cc1ccc2sc(-c3ccc(NC(=O)C=CC(=O)O)cc3)nc2c1
    .	.	13	9	-3	8.8	.
- C=CCNC(=O)/C(C#N)=C/c1ccc(SC)cc1
    2	4221	5	12	11	4.6	-48
- CCN(Cc1ccc2c(c1)OCCO2)C(=O)CN1C(=O)NC2(CCCCC2)C1=O
    .	6352	6	1	4	2.1	-16
- CN(Cc1ccccc1)C(=O)CN1CCN(S(=O)(=O)c2ccc(Cl)c(Cl)c2)CC1
    .	3978	9	5	-4	13	-8
- N#CC1=C(N)Oc2cc(N)ccc2C1c1ccc(F)cc1 (stereo not given)
    9	6087	11	5	-12	11	-33
- O=[N+]([O-])c1ccc(/C=N/Nc2nc(N3CCCCC3)nc(N3CCCCC3)n2)cc1
    5	5663	.	.	.	.	-43
- CCOc1cccc(/C=N/NC(=S)NCCN2CCOCC2)c1O
    -2	4065	.	.	.	.	-17
- CCOc1ccc(N2C(=O)/C(=C/c3ccccn3)SC2=S)cc1
    -11	.	-2	-5	0	3.1	.
- Cc1cc2oc(=O)cc(-c3cc4ccccc4o3)c2cc1OC(=O)N(C)C
    0	5500	6	1	-7	4.0	-14
- CC(=O)c1ccc2c(c1)C1C=CCC1C(C(=O)O)N2 (stereo not given)
    .	3999	6	2	-6	11	-10
- CCCNC(=O)c1ccccc1NC(=O)Cc1ccc(OC)c(S(=O)(=O)N2CCOCC2)c1
    -4	4871	3	-1	4	4.3	-12
- CCOc1ccc(-n2nc(C(=O)NC3CCCCC3)c3ccccc3c2=O)cc1
    -1	5274	5	8	2	-1.6	-112
- O=C(CSc1ccccc1)NCC(c1ccco1)N1CCCCC1 (stereo not given)
    .	5067	10	8	3	0.5	-12
- O=C(Nc1ccccc1)NC1CCN(CCCN2C(=O)c3ccccc3C2=O)CC1
    -7	12470	0	5	-5	1.0	-23
- CCCCN(CCCC)CCCNC(=O)C1CC(c2ccc(C(F)(F)F)cc2)=NO1 (stereo not given)
    5	3639	23	9	5	5.4	-29
- CC(C)C(NC(=O)c1ccc(S(=O)(=O)N2CCOCC2)cc1)c1nc2ccccc2[nH]1 (stereo not given)
    -2	22568*	-1	-7	8	-2.4	1
- CCC(C)(C)NC(=O)C(OC(=O)c1ccco1)c1ccc(OC)cc1 (stereo not given)
    5	4415	-5	-6	5	4.4	-19
- COc1ccc(C)cc1NC(=O)CSc1nnc(-c2cc(C)[nH]n2)n1N
    -6	5907	5	-5	7	2.3	-2
- O=P(Cc1ccccc1)(c1ccccc1)c1ccccc1
    8	2260	9	0	11	8.5	-10
